YB-1 expr inh – YB-1 expression inhibition; delta delta Cp (YB-1 minus CDIP) (no concentration beside the values); U2OS, qRT-PCR YB-1 vs CDIP delta delta Cp, 16 h; hits give high values; zero = DMSO, each unit about twofold; 30,000 tested, 0.37% active;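 active = delta delta Cp rounded down to an integer at or above 3, about 3 SD of DMSO wells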;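 also: higher means less YB-1 transcript or more CDIP transcript relative to DMSO; stock transfer was 100 nL into about 100 µL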
Numbers without * were called inactive.

O=C1O[C@@H](c2ccccc2)[C@@H](c2ccccc2)N2[C@@H](c3ccc(OCCO)cc3)[C@]3(C(=O)Nc4ccccc43)[C@@H](C(=O)NC[C@H](O)c3ccccc3)[C@H]12
  YB-1 expr inh: -0.168
COc1cc(Br)c(/C=N/NC(=O)c2cccc(C(=O)NO)c2)cc1OC
  YB-1 expr inh: -0.0888
CCOc1cccc(/C=N/NC(=O)c2ccccn2)c1OCC
  YB-1 expr inh: -0.722
COc1ccc(C#Cc2ccc3c(c2)[C@]2(C(=O)N3)[C@H](C(=O)Nc3nc4ccccc4s3)[C@H]3C(=O)O[C@H](c4ccccc4)[C@H](c4ccccc4)N3[C@@H]2c2ccccc2OCCO)cc1
  YB-1 expr inh: -0.5
COc1ccc(NC(=O)O[C@H]2[C@@H]3OC(=O)[C@H](Cc4ccccc4)C/C=C/C[C@@H](Cc4ccccc4)C(=O)O[C@H]3[C@@H](OC)O[C@@H]2CO)cc1
  YB-1 expr inh: -0.521
COc1ccc([Si](C)(C)[C@H]2[C@H](CCn3cc([C@H](O)c4ccccc4)nn3)O[C@@]3(C(=O)N(Cc4cccc(N5CCOC5=O)c4)c4ccccc43)[C@@H]2C)cc1
  YB-1 expr inh: 0.02
COc1cccc(-c2cnc3c(c2)C(=O)N([C@H](C)CO)C[C@H](C)[C@H](CN(C)S(=O)(=O)c2cn(C)cn2)O3)c1
  YB-1 expr inh: -0.141
C[C@H](CO)N1C[C@H](C)[C@H](CN(C)Cc2ccc(F)cc2)Oc2ncc(Br)cc2C1=O
  YB-1 expr inh: -0.539
CCCN(C)C[C@H]1OCc2cnnn2CCCC(=O)N([C@H](C)CO)C[C@@H]1C
  YB-1 expr inh: 0.265
COc1ccc(S(=O)(=O)N(C)C[C@H]2OCc3cnnn3CCCC(=O)N([C@@H](C)CO)C[C@@H]2C)cc1
  YB-1 expr inh: -0.475
C[C@H](CO)N1C[C@H](C)[C@H](CN(C)S(C)(=O)=O)OCc2cnnn2CCCC1=O
  YB-1 expr inh: 0.338
COC(=O)CCCCCCC(=O)N/N=C/c1ccc2ccccc2n1
  YB-1 expr inh: -0.211
COc1cccc(NC(=O)N(C)C[C@@H]2OCc3cn(nn3)CCCC(=O)N([C@@H](C)CO)C[C@@H]2C)c1
  YB-1 expr inh: -0.13
C[C@H](CO)N1C[C@H](C)[C@H](CN(C)Cc2ccc(C(F)(F)F)cc2)OCc2cnnn2CCCC1=O
  YB-1 expr inh: -0.101
Cc1ccsc1/C=N\NC(=O)CCCCCC(=O)NO
  YB-1 expr inh: -0.166
O=[N+]([O-])c1ccccc1/C=C/c1ccncc1
  YB-1 expr inh: -0.321
COC(=O)N(C)C[C@H]1OCc2cnnn2CCCC(=O)N([C@H](C)CO)C[C@@H]1C
  YB-1 expr inh: 0.0731
O=S(=O)(N[C@@H]1CCCN(Cc2cccc(OCCO)c2)C1)c1ccccc1
  YB-1 expr inh: 0.213
COc1ccc(S(=O)(=O)N(C)C[C@@H]2Oc3ncc(C#Cc4ccc(OC)c(OC)c4)cc3C(=O)N([C@H](C)CO)C[C@@H]2C)cc1
  YB-1 expr inh: -0.185
C[C@@H]1CN([C@H](C)CO)C(=O)CCCn2cc(nn2)CO[C@@H]1CN(C)Cc1ccc2c(c1)OCO2
  YB-1 expr inh: -3.82
O=C(N/N=C/c1cn(Cc2ccccc2)c2ccccc12)c1ccccc1O
  YB-1 expr inh: 0.215
O=C(O)CCCCCC(=O)N/N=C/c1ccoc1
  YB-1 expr inh: 0.00134
C[C@@H]1CN([C@H](C)CO)C(=O)CCCn2nncc2CO[C@H]1CN(C)C(=O)Nc1ccc2c(c1)OCCO2
  YB-1 expr inh: 0.493
COc1ccc(CN(C)C[C@H]2OCc3cn(nn3)CCCC(=O)N([C@@H](C)CO)C[C@H]2C)cc1
  YB-1 expr inh: -0.555
C[C@@H]1CN([C@@H](C)CO)C(=O)CCCn2nncc2CO[C@@H]1CN(C)C(=O)Nc1ccc(F)cc1
  YB-1 expr inh: -0.158

COc1ccc(Br)cc1/C=N/NC(=O)CCCCCCC(=O)Nc1ccccc1O
  YB-1 expr inh: -0.0856
C[C@H]1CN([C@@H](C)CO)C(=O)CCCn2nncc2CO[C@@H]1CN(C)S(=O)(=O)c1ccccc1F
  YB-1 expr inh: 0.373
C[C@H](CO)N1C[C@H](C)[C@H](CN(C)S(=O)(=O)c2cccc(F)c2)Oc2ncc(-c3ccc(F)cc3)cc2C1=O
  YB-1 expr inh: 0.0599
O=C(N/N=C/c1ccc2ccccc2c1)c1ccccn1
  YB-1 expr inh: 0.0459
C[C@H](CO)N1C[C@H](C)[C@@H](CN(C)S(=O)(=O)c2ccc3c(c2)OCCCO3)OCc2cnnn2CCCC1=O
  YB-1 expr inh: -0.0764
COC(=O)CCCCCCC(=O)N/N=C/c1ccc[nH]1
  YB-1 expr inh: -0.0816
C[C@@H]1CN([C@@H](C)CO)C(=O)CCCn2cc(nn2)CO[C@@H]1CN(C)Cc1ccc2c(c1)OCCO2
  YB-1 expr inh: -0.0868
O=C(NO)c1ccc(C(=O)N/N=C/c2ccc(OCCO)cc2)cc1
  YB-1 expr inh: -0.0662
COCCCNC(=O)[C@@]1(Cc2ccccc2I)c2ccccc2C(=O)N(Cc2ccccc2OC)[C@H]1c1ccc(CO)cc1
  YB-1 expr inh: -0.375
C[C@@H]1CN([C@H](C)CO)C(=O)CCCn2cc(nn2)CO[C@H]1CN(C)Cc1ccc(O)cc1
  YB-1 expr inh: -0.155
O=C(CCCCCCC(=O)Nc1ccccc1O)N/N=C/c1cc(Br)cs1
  YB-1 expr inh: 0.102
C[C@H](CO)N1C[C@H](C)[C@H](CN(C)S(=O)(=O)c2ccc(-n3cccn3)cc2)OCc2cn(nn2)CCCC1=O
  YB-1 expr inh: -0.562
C[C@H](CO)N1C[C@H](C)[C@@H](CN(C)C(=O)C2CCCCC2)OCc2cn(nn2)CCCC1=O
  YB-1 expr inh: 0.939
O=C(N/N=C/c1cccc(B(O)O)c1)c1ccccc1O
  YB-1 expr inh: -0.134
C[C@H](CO)N1C[C@H](C)[C@H](CN(C)S(=O)(=O)c2ccccc2C#N)OCc2cnnn2CCCC1=O
  YB-1 expr inh: -2.39
COc1cc2c(cc1O)C(c1cccs1)N(Cc1sc3ccccc3c1Cl)CC2 (stereo not drawn)
  YB-1 expr inh: 0.0353
O=C(O)CCCCCC(=O)NN=C1CCCCCCC1
  YB-1 expr inh: 0.326
O=C1O[C@H](c2ccccc2)[C@H](c2ccccc2)N2[C@H]1[C@@H](C(=O)N1CCN(c3ncccn3)CC1)[C@]1(C(=O)Nc3ccc(C#CC4(O)CCCCCC4)cc31)[C@H]2c1ccc(O)cc1
  YB-1 expr inh: -0.243
O=C(N/N=C/c1ccc(-c2ccccc2)c(F)c1)c1ccccc1O
  YB-1 expr inh: 0.26
CC(=O)NCCCC[C@@H]1NC(=O)[C@@H]2C[C@H](C(=O)NCc3ccc(F)cc3)[C@H](c3ccc(O)cc3)N2C1=O
  YB-1 expr inh: 0.162
O=C(CCCCC(=O)N/N=C/c1cc(Br)cs1)NO
  YB-1 expr inh: -0.354
C[C@H]1CN([C@@H](C)CO)C(=O)CCCn2nncc2CO[C@H]1CN(C)C(=O)Cc1ccccc1
  YB-1 expr inh: -0.158
Cc1ccccc1CN(C)C[C@H]1OCc2cn(nn2)CCCC(=O)N([C@@H](C)CO)C[C@@H]1C
  YB-1 expr inh: 0.131
CN1C(=O)C2C(C1=O)C1C=C(CCCO)C2C(c2ccc(CN3CCCC3)cc2)N1Cc1sc2ccccc2c1Cl (stereo not drawn)
  YB-1 expr inh: 0.129
C[C@H](CO)N1C[C@H](C)[C@H](CN(C)S(=O)(=O)c2cn(C)cn2)Oc2ncc(C#CCN(C)C)cc2C1=O
  YB-1 expr inh: 0.113

A different layout for 2 compounds above.
Molecule,YB-1 expr inh
C[C@@H]1CN([C@@H](C)CO)C(=O)CCCn2nncc2CO[C@@H]1CN(C)C(=O)Nc1ccc(F)cc1,-0.158
COc1ccc(Br)cc1/C=N/NC(=O)CCCCCCC(=O)Nc1ccccc1O,-0.0856

Given in CSV form: two of the compounds above
compound,YB-1 expr inh
COc1ccc(S(=O)(=O)N(C)C[C@H]2OCc3cnnn3CCCC(=O)N([C@@H](C)CO)C[C@@H]2C)cc1,-0.475
C[C@H](CO)N1C[C@H](C)[C@H](CN(C)S(C)(=O)=O)OCc2cnnn2CCCC1=O,0.338

Some of these compounds in order of count of non-hydrogen atoms, rising.
COc1ccc(Br)cc1/C=N/NC(=O)CCCCCCC(=O)Nc1ccccc1O
  YB-1 expr inh: -0.0856
Cc1ccccc1CN(C)C[C@H]1OCc2cn(nn2)CCCC(=O)N([C@@H](C)CO)C[C@@H]1C
  YB-1 expr inh: 0.131
COCCCNC(=O)[C@@]1(Cc2ccccc2I)c2ccccc2C(=O)N(Cc2ccccc2OC)[C@H]1c1ccc(CO)cc1
  YB-1 expr inh: -0.375

(more compounds)
COc1ccc(/C=N/NC(=O)CCCCCCC(=O)Nc2ccccc2O)cc1OC
  YB-1 expr inh: -0.133
O=C(NO)c1ccc(C(=O)N/N=C/c2ccco2)cc1
  YB-1 expr inh: -0.405
COC(=O)c1ccc([C@H]2C=C(C(=O)O)O[C@@H](OCCCCO)C2)cc1
  YB-1 expr inh: 0.0855
C[C@@H]1CN([C@H](C)CO)C(=O)CCCn2cc(nn2)CO[C@H]1CN(C)C(=O)Nc1ccccc1C(F)(F)F
  YB-1 expr inh: -0.0821
COc1cccc(S(=O)(=O)N(C)C[C@@H]2OCc3cn(nn3)CCCC(=O)N([C@H](C)CO)C[C@@H]2C)c1
  YB-1 expr inh: -0.285
C[C@@H]1CN([C@@H](C)CO)C(=O)CCCn2cc(nn2)CO[C@H]1CN(C)Cc1ccccc1C(=O)O
  YB-1 expr inh: -0.294
O=C(CCCCC(=O)N/N=C/c1ccc([N+](=O)[O-])s1)NO
  YB-1 expr inh: 0.092
CNC[C@@H]1Oc2ncc(Br)cc2C(=O)N([C@H](C)CO)C[C@@H]1C
  YB-1 expr inh: -0.0231
O=C(N/N=C/c1ccc(O)c(O)c1O)c1ccccn1
  YB-1 expr inh: 0.362
C[C@@H]1CN([C@@H](C)CO)C(=O)CCCn2nncc2CO[C@H]1CN(C)C(=O)Nc1cccc(F)c1
  YB-1 expr inh: -0.811
COCCOC(=O)N1C(=O)[C@@]2(c3cc(C#CC4=CCCCC4)ccc31)[C@H](C(=O)N1CCN(c3ncccn3)CC1)[C@H]1C(=O)O[C@H](c3ccccc3)[C@H](c3ccccc3)N1[C@@H]2c1ccccc1OCCO
  YB-1 expr inh: -0.503
C[C@H](CO)N1C[C@H](C)[C@H](CN(C)C(=O)Nc2ccccc2)Oc2ncc(C#CCN(C)C)cc2C1=O
  YB-1 expr inh: -0.272
CCCCN(CCCC)c1ccc(/C=N/NC(=O)c2ccccc2O)cc1
  YB-1 expr inh: -0.0945
COc1cccc(S(=O)(=O)N(C)C[C@H]2OCc3cn(nn3)CCCC(=O)N([C@H](C)CO)C[C@@H]2C)c1
  YB-1 expr inh: 0.0102
COc1cccc(-c2cnc3c(c2)C(=O)N([C@H](C)CO)C[C@H](C)[C@H](CN(C)S(=O)(=O)c2ccc(C#N)cc2)O3)c1
  YB-1 expr inh: 0.0097
O=C(N/N=C/c1ccc2c(c1)CCO2)c1ccccn1
  YB-1 expr inh: -0.264
O=S(=O)(c1ccccc1)N1CCN(Cc2cccc(OCCO)c2)CC1
  YB-1 expr inh: 0.507
C[C@@H]1CN([C@@H](C)CO)C(=O)CCCn2nncc2CO[C@@H]1CN(C)S(=O)(=O)c1ccc2ccccc2c1
  YB-1 expr inh: -0.0495

A portion of the library; the hit share may differ from the screen's.
